# MbtI inh: MbtI salicylate synthase inhibition; AID 493033; purified MbtI enzyme, fluorescence intensity read-out; hit rate 0.89% among 100,000; inhibition, %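 (about 17 µg/mL by stock and volumes)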;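 active means above 50% in both replicates, above 80% if mildly self-fluorescent; inactive means the rest, strongly fluorescent compounds included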;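 further: 0% = mean of negative and 100% = mean of positive controls; one replicate is shown; some compounds called inactive have numbers as strong as hits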
# PV pol inh: inhibitors of poliovirus RNA polymerase binding and polymerization | P03300 | poliovirus polymerase elongation, fluorescence polarization; hits give low values | % elongation, % (compound at 16.7 µg/mL) | hit rate 0.66% among 150,000; in the data active means % elongation below about 90%; further: some results filed as inactive read as strong as hits
# Target sequence (P03300 1749-2209 limits assumed): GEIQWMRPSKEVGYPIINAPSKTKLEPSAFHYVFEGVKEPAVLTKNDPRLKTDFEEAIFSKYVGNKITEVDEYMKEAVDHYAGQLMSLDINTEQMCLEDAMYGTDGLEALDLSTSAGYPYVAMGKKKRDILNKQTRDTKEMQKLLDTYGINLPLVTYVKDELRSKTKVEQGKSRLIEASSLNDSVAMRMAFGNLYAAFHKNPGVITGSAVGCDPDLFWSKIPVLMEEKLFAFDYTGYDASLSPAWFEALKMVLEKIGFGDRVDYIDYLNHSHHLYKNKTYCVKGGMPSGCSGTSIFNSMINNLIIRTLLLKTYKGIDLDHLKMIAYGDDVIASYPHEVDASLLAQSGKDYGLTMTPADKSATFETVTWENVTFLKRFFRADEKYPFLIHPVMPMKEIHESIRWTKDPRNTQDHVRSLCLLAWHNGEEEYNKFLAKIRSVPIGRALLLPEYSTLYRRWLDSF
# Mtb MenB inh: blocks the Mycobacterium tuberculosis MenB enzyme; AID 540299; MenB enzyme assay, absorbance read-out; some hits fall short of the stated cut; inhibition, %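 (about 12 µg/mL by stock and volumes)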; hit rate 0.43% among 100,000;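 active means mean of two replicates above 30%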;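 further: 0% = no compound and 100% = wells with inactive enzyme; the first replicate is given; strong numbers were not always called active; inactives centre near -10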
# Target sequence (P9WNP5 whole entry, looked up): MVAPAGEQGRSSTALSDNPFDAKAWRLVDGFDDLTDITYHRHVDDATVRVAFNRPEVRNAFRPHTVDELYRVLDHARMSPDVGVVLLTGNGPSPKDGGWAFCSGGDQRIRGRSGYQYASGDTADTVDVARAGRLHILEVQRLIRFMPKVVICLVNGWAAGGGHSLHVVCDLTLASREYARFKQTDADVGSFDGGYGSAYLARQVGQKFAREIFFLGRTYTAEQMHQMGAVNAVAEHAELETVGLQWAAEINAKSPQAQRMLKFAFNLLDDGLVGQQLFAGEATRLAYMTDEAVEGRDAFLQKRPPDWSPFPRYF
# PV pol inh intensity: second read-out of PV pol inh, no call of its own (marks repeat the call); % elongation; measured here: total intensity read-out; formula for this scale not given here;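 total fluorescence in place of polarization; lower means less elongation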
# Numbers without * were called inactive; . = not tested or not shown. Compounds were not picked by outcome. About 2% of those tested had a hit in this group.
# Screens by letter: A = MbtI inh; B = PV pol inh; C = PV pol inh intensity; D = Mtb MenB inh
(1) O=C(CCC1=NS(=O)(=O)c2ccccc2N1)NCc1cccs1
  A: -9 | B: 98 | C: 101 | D: 12
(2) CN(C(=O)Cn1c(=O)oc2cc(S(=O)(=O)N3CCCC3)ccc21)c1ccc(Br)cc1
  A: -19 | B: 101 | C: 101 | D: -22
(3) OC1N(CN2CCN(c3ccccc3F)CC2)c2ccccc2C12OCCCO2 (stereo unspecified)
  A: -14 | B: 101 | C: 108 | D: -22
(4) Cc1nc(Cc2nnc(SCC(=O)c3ccc4[nH]c(=O)[nH]c4c3)o2)cs1
  A: 4 | B: 105 | C: 99 | D: -2
(5) CCC(C)CCCNc1n[nH]c(=S)s1 (stereo unspecified)
  A: 98* | B: 96 | C: 102 | D: -19
(6) NC(=S)N/N=C/c1ccc(-c2ccc(S(=O)(=O)Nc3ncccn3)cc2)o1
  A: 44 | B: 96 | C: 91 | D: -73
(7) Cc1noc(C)c1CC(=O)N(CC1CCCO1)c1nc(-c2ccc(Br)cc2)cs1 (stereo unspecified)
  A: 12 | B: 105 | C: 108 | D: -25
(8) O=C(O)CCN1C(=O)CCC1=O
  A: -2 | B: 101 | C: 100 | D: -26
(9) COc1ccc2c(COC(=O)CC3Oc4ccccc4NC3=O)cc(=O)oc2c1 (stereo unspecified)
  A: 86 | B: 102 | C: 109 | D: -13
(10) O=C(O)c1ccc(N=Cc2c(-c3ccccc3)[nH]oc2=O)cc1
  A: . | B: 105 | C: 104 | D: -496
(11) CC(C)c1ccc(NC(=O)c2cccnc2Cl)cc1
  A: -1 | B: 103 | C: 98 | D: -13
(12) CC1CCCCN1c1ccc(N)cc1C(N)=O (stereo unspecified)
  A: . | B: 103 | C: 109 | D: 9
(13) N#Cc1c2c(c(=O)n3c1[nH]c1ccccc13)CCCC2
  A: -1 | B: 100 | C: 100 | D: 5
(14) O=C(NC(Cc1c[nH]c2ccccc12)C(=O)O)c1ccccc1Cl (stereo unspecified)
  A: -12 | B: 104 | C: 108 | D: .
(15) CN(C(=O)CN1C(=O)C2CC=CCC2C1=O)C(c1ccccc1)c1ccccc1 (stereo unspecified)
  A: -2 | B: 105 | C: 98 | D: -24

# (cont.)
# Screens by letter: A = MbtI inh; B = PV pol inh; C = PV pol inh intensity; D = Mtb MenB inh
(16) COc1cccc(NC(=O)NC2CCCC2)c1
  A: -12 | B: 105 | C: 100 | D: -40
(17) O=S(=O)(Nc1nc2ccc(S(=O)(=O)N3CCCCC3)cc2s1)c1ccccc1
  A: 1 | B: 101 | C: 103 | D: -11
(18) COc1ccc(C(O)CN2CC=C(c3ccc(N(C)C)cc3)CC2)cc1 (stereo unspecified)
  A: -40 | B: 106 | C: 110 | D: .
(19) CC1CCN(C(=S)c2ccc(O)cc2)CC1
  A: 99* | B: 100 | C: 102 | D: -12
(20) C=CCn1c(SCc2cc(=O)[nH]c(C34CC5CC(CC(C5)C3)C4)n2)n[nH]c1=O
  A: 7 | B: 99 | C: 102 | D: 15
(21) COc1ccccc1Nc1cc(C(=O)N2CCN(Cc3ccccc3)CC2)c2ccccc2n1
  A: 11 | B: 104 | C: 103 | D: -40
(22) CC(C)CN(C(=O)Nc1ccccc1)C1=NCC(C)S1 (stereo unspecified)
  A: . | B: 103 | C: 111 | D: -22
(23) CCN(Cc1nnc(-c2ccccc2C)o1)c1ccccc1
  A: -5 | B: 103 | C: 103 | D: -15
(24) CN=Cc1cc(-c2ccccc2)sc1S
  A: 96* | B: 99 | C: 107 | D: -59
(25) COc1ccc(C2=N/C(=C\c3ccc(-c4ccc(S(=O)(=O)Nc5ncccn5)cc4)o3)C(=O)O2)cc1
  A: -73 | B: 48 | C: 249 | D: -12
(26) C=CCn1c(CC(C)C)nnc1SCC(=O)c1ccc(Cl)cc1
  A: 11 | B: 101 | C: 102 | D: -4
(27) N#CCCn1nc(-c2ccccc2)cc1Nc1ccccc1NC(=O)c1ccccc1
  A: 1 | B: 103 | C: 105 | D: -10
(28) CCCCCCCCCCCCCCCCOC[C@@H](O)COP(=O)([O-])OCC[N+](C)(C)C
  A: -11 | B: 101 | C: 104 | D: .
(29) CSC1=NCCN1C(=O)c1cccs1
  A: -5 | B: 102 | C: 105 | D: -30
(30) O=S(=O)(NC1CCCCC1)c1ccc(-c2cc(C(F)(F)F)no2)s1
  A: -4 | B: 102 | C: 102 | D: -25

# 3 compounds from above, arranged by length of the SMILES, largest number first:
# Screens by letter: A = MbtI inh; B = PV pol inh; C = PV pol inh intensity; D = Mtb MenB inh
(7) Cc1noc(C)c1CC(=O)N(CC1CCCO1)c1nc(-c2ccc(Br)cc2)cs1 (stereo unspecified)
  A: 12 | B: 105 | C: 108 | D: -25
(23) CCN(Cc1nnc(-c2ccccc2C)o1)c1ccccc1
  A: -5 | B: 103 | C: 103 | D: -15
(29) CSC1=NCCN1C(=O)c1cccs1
  A: -5 | B: 102 | C: 105 | D: -30

# Carrying on:
# Screens by letter: A = MbtI inh; B = PV pol inh; C = PV pol inh intensity; D = Mtb MenB inh
(31) COc1ccc(C2/C(=C(\O)c3ccccc3)C(=O)C(=O)N2CCN2CCOCC2)cc1 (stereo unspecified)
  A: -4 | B: 103 | C: 107 | D: -16
(32) OC1(C#CCN2CCCCC2)c2ccccc2C2CCCC21 (stereo unspecified)
  A: . | B: 96 | C: 101 | D: -4
(33) CC(NC(=O)NC1(c2ccccc2)CC1)C12CC3CC(CC(C3)C1)C2 (stereo unspecified)
  A: . | B: 103 | C: 95 | D: -20
(34) Cc1nn(CCC#N)c2nc(-c3ccc(F)cc3)cc(C(=O)O)c12
  A: 99 | B: 99 | C: 96 | D: -15
(35) O=S(=O)(c1ccc2ccccc2c1)N1CCOCC1
  A: 1 | B: 102 | C: 97 | D: .
(36) CC1=C(C(=O)Nc2ccccc2)C(c2ccc(C(C)C)cc2)n2c(nc3ccccc32)N1 (stereo unspecified)
  A: . | B: 102 | C: 107 | D: 2
(37) Cc1ccc(C(=O)NCc2ccccc2)cc1
  A: -10 | B: 101 | C: 101 | D: -1
(38) COc1ccc(-c2noc(CN(Cc3ccco3)S(C)(=O)=O)n2)cc1
  A: 6 | B: 102 | C: 102 | D: -4
(39) O=C1CC(=Nc2ccc(F)cc2)NN1
  A: -7 | B: 104 | C: 101 | D: -74
(40) CC(C)[C@H](NC(=O)c1cc2ccccc2o1)c1nc2ccccc2[nH]1
  A: 2 | B: 109 | C: 114 | D: -3
(41) Cc1c(C(=O)Oc2cccc3cccnc23)oc2ccccc12
  A: 9 | B: 98 | C: 101 | D: -25
(42) O=C(O)COCC(=O)NC1CCCCNC1=O (stereo unspecified)
  A: 2 | B: 104 | C: 104 | D: -17
(43) CC1C2=C(CC(C)(C)CC2=O)OC2=C1C(=O)CC(C)(C)C2
  A: -6 | B: 108 | C: 98 | D: -21
(44) COc1cccc(N2CCNCC2)c1
  A: 3 | B: 100 | C: 102 | D: 15
(45) CCOC(=O)CN(c1ccccc1)C1SC(=O)N(Cc2cccc(C(=O)O)c2)C1=O (stereo unspecified)
  A: -10 | B: 101 | C: 105 | D: -11

# The list goes on:
# Screens by letter: A = MbtI inh; B = PV pol inh; C = PV pol inh intensity; D = Mtb MenB inh
(46) N#C/C(=C\c1ccc[nH]1)C(=O)NCCc1ccccn1
  A: -5 | B: 101 | C: 102 | D: -9
(47) Cc1ccc(S(=O)(=O)NC(=O)C(C)O)c(C)c1 (stereo unspecified)
  A: -14 | B: 102 | C: 105 | D: .
(48) COc1ccc(NC(=O)C(C)Sc2nc(C)cc(=O)[nH]2)cc1 (stereo unspecified)
  A: 18 | B: 101 | C: 100 | D: 1
(49) Oc1cccc(Nc2nc(-c3ccc(F)cc3F)cs2)c1
  A: 6 | B: 100 | C: 101 | D: .
(50) CN(C)C(=S)Nc1nc2ccccc2s1
  A: 71* | B: 100 | C: 97 | D: -59
(51) CC(NS(=O)(=O)/C=C/c1ccccc1)C(=O)N1CCN(c2ccccc2Cl)CC1 (stereo unspecified)
  A: 4 | B: 102 | C: 99 | D: 6
(52) Cc1cc(C)n(-c2nnc(C)n2/N=C/c2cc(Br)ccc2OCc2ccccc2)n1
  A: -2 | B: 101 | C: 103 | D: 1

# Filtered by structure: the entries above with a halogen
# Screens by letter: A = MbtI inh; B = PV pol inh; C = PV pol inh intensity; D = Mtb MenB inh
(2) CN(C(=O)Cn1c(=O)oc2cc(S(=O)(=O)N3CCCC3)ccc21)c1ccc(Br)cc1
  A: -19 | B: 101 | C: 101 | D: -22
(3) OC1N(CN2CCN(c3ccccc3F)CC2)c2ccccc2C12OCCCO2 (stereo unspecified)
  A: -14 | B: 101 | C: 108 | D: -22
(7) Cc1noc(C)c1CC(=O)N(CC1CCCO1)c1nc(-c2ccc(Br)cc2)cs1 (stereo unspecified)
  A: 12 | B: 105 | C: 108 | D: -25
(11) CC(C)c1ccc(NC(=O)c2cccnc2Cl)cc1
  A: -1 | B: 103 | C: 98 | D: -13
(14) O=C(NC(Cc1c[nH]c2ccccc12)C(=O)O)c1ccccc1Cl (stereo unspecified)
  A: -12 | B: 104 | C: 108 | D: .
(26) C=CCn1c(CC(C)C)nnc1SCC(=O)c1ccc(Cl)cc1
  A: 11 | B: 101 | C: 102 | D: -4
(30) O=S(=O)(NC1CCCCC1)c1ccc(-c2cc(C(F)(F)F)no2)s1
  A: -4 | B: 102 | C: 102 | D: -25
(34) Cc1nn(CCC#N)c2nc(-c3ccc(F)cc3)cc(C(=O)O)c12
  A: 99 | B: 99 | C: 96 | D: -15
(39) O=C1CC(=Nc2ccc(F)cc2)NN1
  A: -7 | B: 104 | C: 101 | D: -74
(49) Oc1cccc(Nc2nc(-c3ccc(F)cc3F)cs2)c1
  A: 6 | B: 100 | C: 101 | D: .
(51) CC(NS(=O)(=O)/C=C/c1ccccc1)C(=O)N1CCN(c2ccccc2Cl)CC1 (stereo unspecified)
  A: 4 | B: 102 | C: 99 | D: 6
(52) Cc1cc(C)n(-c2nnc(C)n2/N=C/c2cc(Br)ccc2OCc2ccccc2)n1
  A: -2 | B: 101 | C: 103 | D: 1
